Compound activity deposited in PubChem by Vanderbilt University.
GIRK2 activ: opens human GIRK2 potassium channels. HEK293-GIRK2 thallium flux, Thallos fluorescence. calls only for hits at 25 µM. hit rate 0.05% among 63,000. AID 1259325;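 active = among the strongest 0.2% of first-round signals and kept after retests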;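 also: first round at about 10 µM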
Target sequence (P48051 whole entry, looked up): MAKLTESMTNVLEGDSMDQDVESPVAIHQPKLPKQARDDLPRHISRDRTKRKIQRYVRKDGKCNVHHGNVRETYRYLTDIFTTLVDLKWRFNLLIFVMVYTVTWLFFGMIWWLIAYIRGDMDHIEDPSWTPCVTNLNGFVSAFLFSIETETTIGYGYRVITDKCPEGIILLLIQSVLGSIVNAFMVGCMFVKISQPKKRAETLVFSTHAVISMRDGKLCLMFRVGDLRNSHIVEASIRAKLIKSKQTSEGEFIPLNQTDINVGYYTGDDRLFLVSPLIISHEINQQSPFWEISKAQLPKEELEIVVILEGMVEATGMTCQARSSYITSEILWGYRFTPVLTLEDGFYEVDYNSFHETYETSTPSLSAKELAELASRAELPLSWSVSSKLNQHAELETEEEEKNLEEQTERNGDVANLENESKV
Calls only; i = inactive; + = active, no number. These rows are one share of the data; rates above refer to the full screens.

Start of the data: the first four entries (preview)
SMILES	GIRK2 activ
Cc1csc(SCC2CCN(S(=O)(=O)N(C)C)CC2)n1	i
COc1ccc(NC(=O)C(=O)NC2CCCC2)cc1OC	i
O=C(NCc1ccncc1)c1sc2ncccc2c1-n1cccc1	i
COc1ccc(-c2nnc(CC(=O)N3CCN(c4ccccc4Cl)CC3)o2)cc1	i

Main list, from the first entry:
SMILES	GIRK2 activ
Cc1csc(SCC2CCN(S(=O)(=O)N(C)C)CC2)n1	i
COc1ccc(NC(=O)C(=O)NC2CCCC2)cc1OC	i
O=C(NCc1ccncc1)c1sc2ncccc2c1-n1cccc1	i
COc1ccc(-c2nnc(CC(=O)N3CCN(c4ccccc4Cl)CC3)o2)cc1	i
O=C(Nc1cccs1)N1CCOC(c2ccccc2)C1 (centres undefined)	i
CCCCCCCCC#CCC#CCCCCCCC(=O)O	i
Cc1ccc(CC(=O)N2CCC3(CC2)NC(=O)c2cc(C)ccc2N3C)cc1	i
CC(C)c1cnc2c(c1SCC(=O)NCc1ccc(F)cc1)c(=O)n(C)c(=O)n2C	i
COc1ccc(-c2coc3c(C)c(OCC(=O)Nc4ccc(C)cc4)ccc3c2=O)cc1	i
CS(=O)(=O)c1ccc(-c2nnc(SCC(=O)c3ccc(Cl)cc3)o2)cc1	i
Cc1nc2sc(C)c(C)n2c(=O)c1NC(=O)c1ccccc1C(F)(F)F	i
CCCS(=O)(=O)N1CCN(CC(=O)c2cccs2)CC1	i
Cc1cc(C)n(C(=O)c2sccc2S(=O)(=O)N(C)c2ccc(F)cc2)n1	i
O=C(/C=C\c1ccccc1)N1CCC(c2nnc(C3CC3)s2)CC1	i
CCCN(CCC)S(=O)(=O)c1ccc(C(=O)Nc2ccccc2OC)cc1	i
Cc1cccc(CC(=O)N2CCC(c3cccs3)CC2)c1	i
O=C1CC(c2nc(C3CC3)no2)CN1CCc1cccs1 (centres undefined)	i
CNC(=O)/C(C#N)=C1/SC(Cc2ccc(OC)cc2)C(=O)N1c1cccc(C(F)(F)F)c1 (centres undefined)	i
O=C(NCc1cccc2ccccc12)N1CCC(Oc2ccc(C(F)(F)F)cn2)CC1	i
Cc1cc(NC(=O)Cn2nc(-c3cccs3)ccc2=O)no1	i
O=c1[nH]c2nc(NCCc3cccs3)ncc2c(=O)n1-c1ccccc1	i
O=C(Nc1ccc(Cl)cc1)NC1(C(=O)O)CCCCC1	i
COc1ccc(-c2c(C(F)(F)F)oc3c4c(ccc3c2=O)OCN(C2CCS(=O)(=O)C2)C4)cc1 (centres undefined)	i
COc1ccc(CNC(=O)N2CCC(Cn3c(C(F)(F)F)nc4ccccc43)CC2)cc1	i
O=C(NCc1nc2ccccc2[nH]1)c1cc2n(n1)CCCO2	i
CC(C)c1ccc(NC(=O)Cn2nc3c(=O)n(-c4ccc(Br)cc4)ccn3c2=O)cc1	i
Cc1ccc(Cl)cc1NC(=O)Cn1c(=O)n(Cc2ccc(F)cc2)c(=O)c2nccnc21	i
Cc1cc(=O)n(CC(=O)N2CCN(c3ccc(F)cc3)CC2)c(N2CCOCC2)n1	i
CN(c1ccsc1C(=O)NCCCc1ccccc1)S(=O)(=O)c1ccccc1	i
COc1cccc(S(=O)(=O)N2CCN(CCn3ccnc3-c3ccccc3)CC2)c1	i
CCOc1ccc(NC(=O)C(=O)NCC(C)(O)CCSC)cc1 (centres undefined)	i
COc1ccc(OC)c(-c2cc(C(=O)N3CCC(C(=O)NCC(F)(F)F)CC3)[nH]n2)c1	i
CCCCc1ccc(N2CC(C)Cn3c2nc2c3c(=O)n(C(C)C(=O)OC)c(=O)n2C)cc1 (centres undefined)	i
COc1cn(C)c(C(=O)Nc2nc3ccc(Cl)cc3s2)cc1=O	i
Cc1ccc(-c2csc3nnc(SCC(=O)Nc4nc(-c5ccccc5)ns4)n23)cc1	i
O=C(/C=C/c1cccs1)NCC1CCS(=O)(=O)C1 (centres undefined)	i
CCC(CO)NC(=O)c1nnn(-c2ccc(C(F)(F)F)cc2)n1 (centres undefined)	i
CS(=O)(=O)C1CCN(C(=O)NC2CCCCC2)C1 (centres undefined)	i
Cc1cc(C(=O)N2CC(Oc3nc4c(C(F)(F)F)cccc4s3)C2)no1	i
Cc1cc(C)n(-c2ccc(=O)n(C(C)C(=O)NCCc3ccc(S(N)(=O)=O)cc3)n2)n1 (centres undefined)	i

Pulled one by one from the entries so far, 2 records:
SMILES	GIRK2 activ
CCCCc1ccc(N2CC(C)Cn3c2nc2c3c(=O)n(C(C)C(=O)OC)c(=O)n2C)cc1 (centres undefined)	i
CCOc1ccc(NC(=O)C(=O)NCC(C)(O)CCSC)cc1 (centres undefined)	i

(listing goes on)
SMILES	GIRK2 activ
CC(O)(CNC(=O)C(=O)NCC(F)(F)F)c1ccco1 (centres undefined)	i
O=C(CSC1=NNC2C3CC(c4ccccc4)NN3C=CN12)NCc1ccc(Cl)cc1 (centres undefined)	i
COc1ccc(N2C(=O)C3N=NN(CC(=O)Nc4cccc(OC)c4)C3C2=O)cc1 (centres undefined)	i
Cc1cccc(-c2nnc(NC(=O)/C=C/c3ccccc3)o2)n1	i
COc1cc(NC(=O)Nc2cnc(N3CCN(c4ccccn4)CC3)nc2)cc(OC)c1	i
CCOc1ccc(-n2nnnc2CN2CCN(C(=O)Nc3cccc(Cl)c3)CC2)cc1	i
CN(C)S(=O)(=O)c1ccc(C(=O)N2CCN(CCn3cccn3)CC2)cc1	i
CCOCCn1c(=O)c2c(nc(-n3nc(C)cc3C)n2Cc2ccc(C)cc2)n(C)c1=O	i
O=C(CCCS(=O)(=O)Cc1ccccc1)Nc1ccc2c(c1)C(=O)NC2=O	i
COC(=O)c1ccc(C(=O)NCC(O)c2ccc3c(c2)CCO3)cc1 (centres undefined)	i

4 entries already listed, arranged by molecular weight, low to high:
SMILES	GIRK2 activ
COC(=O)c1ccc(C(=O)NCC(O)c2ccc3c(c2)CCO3)cc1 (centres undefined)	i
CN(C)S(=O)(=O)c1ccc(C(=O)N2CCN(CCn3cccn3)CC2)cc1	i
CCOCCn1c(=O)c2c(nc(-n3nc(C)cc3C)n2Cc2ccc(C)cc2)n(C)c1=O	i
CCOc1ccc(-n2nnnc2CN2CCN(C(=O)Nc3cccc(Cl)c3)CC2)cc1	i

(more compounds)
SMILES	GIRK2 activ
Cn1cc(C(=O)N2CCC(C(=O)Nc3nccs3)CC2)nn1	i
CCOC(=O)c1cn[nH]c1S(=O)(=O)N1CCN(c2cccc(C)c2)C(C)C1 (centres undefined)	+
Cc1ccc(-n2c(-c3ccccc3)cnc2SCC#N)cc1	i
O=C(c1cccc(-n2cnnn2)c1)N1CCC(c2nnc(-c3ccc(F)cc3)o2)CC1	i
COc1ccc(S(=O)(=O)N2CCCCC2CC(=O)NCCc2ccccc2OC)cc1 (centres undefined)	i
O=C(c1ccc(Br)o1)N1CCC2(CC1)OCCS2	i
CN1CCC2(CC1)Oc1ccc(Cl)cc1C1CC(c3ccco3)=NN12 (centres undefined)	i
CCc1ccc(CNC(=O)c2c(O)c3cccnc3[nH]c2=O)cc1	i
Cc1ccc2c(=O)c(C(=O)N3CCOCC3)cn(CC(=O)NCc3ccc(F)cc3)c2n1	i
Cc1noc(C)c1CNc1ncc2c(=O)n(-c3ccccc3F)c(=O)[nH]c2n1	i

Reformatted: entries from further up
Compound: Cc1ccc(-n2c(-c3ccccc3)cnc2SCC#N)cc1
  GIRK2 activ: i
Compound: Cn1cc(C(=O)N2CCC(C(=O)Nc3nccs3)CC2)nn1
  GIRK2 activ: i

Other compounds follow:
SMILES	GIRK2 activ
CC(Cc1cccs1)NC(=O)C(=O)Nc1ccon1 (centres undefined)	i
O=C(c1cc([N+](=O)[O-])cc([N+](=O)[O-])c1)N1CCN(c2ccccn2)CC1	i
COc1cccc(CNC(=O)Cn2cnc3c(-c4ccncc4)nsc3c2=O)c1OC	i
Cc1csc(NC(=O)CN2CCN(CC(=O)c3ccco3)CC2)n1	i
O=C1CCSCC(C(=O)N2CCc3ccccc3C2)N1 (centres undefined)	i
O=S(=O)(c1ccc(Cl)s1)N1CCC(CSc2ccccn2)CC1	i
Cc1nc(-c2cccc(NC(=O)C3CCCN(c4ccc(-n5ccnc5)nn4)C3)c2)cs1 (centres undefined)	i
Cc1cc(C(=O)Nc2nc(C(=O)Nc3ccccc3C(N)=O)co2)c(C)o1	i
O=C(c1ccc2ccccc2c1)N1CCN(CC(O)c2ccco2)CC1 (centres undefined)	i
CCNC(=S)NNc1nnnn1-c1ccccc1	i
Cc1ccc(C)c(NC(=O)CSc2nccnc2N2CCN(c3cccc(C)c3C)CC2)c1	i
Cc1cc(C(O)CCNC(=O)c2c(F)cccc2Cl)c(C)o1 (centres undefined)	i
COc1cccc2cc(C(=O)NC3C=CS(=O)(=O)C3)oc12 (centres undefined)	i
COc1cccc(NC(=O)Nc2ccc3c(c2)CCCN3C(=O)C2CC2)c1	i
O=C(COc1ccccc1F)N(Cc1ccsc1)Cc1ccco1	i
O=c1c(-c2nc(-c3ccsc3)no2)cccn1CCOc1ccc(F)cc1	i
O=C(CCc1ccccc1)Nc1cnc(N2CCCC2)nc1	i
CC(=O)Nc1ccc(NC(=O)c2ccc(-c3c(Cl)cccc3Cl)o2)cc1	i
COc1ccccc1-c1noc(Cn2c(=O)n(Cc3ccco3)c(=O)c3ccccc32)n1	i
O=C(c1cc(-c2ccccc2)on1)N1CC(c2nc(-c3ccncc3)no2)C1	i
CSc1ccc(/C=C2\C=C(CC(=O)NCc3ccc([N+](=O)[O-])cc3)c3cc(F)ccc32)cc1	i
O=C(NNC(=O)c1ccccc1Cl)c1ccc(=O)n(Cc2ccc(Cl)cc2)c1	i
Cc1ccc(-c2cc3c4nn(CC(=O)Nc5ccccc5C)c(=O)n4ccn3n2)cc1C	i
COc1ccc(Cl)cc1NC(=O)CSc1nccn1-c1cccc(C(=O)Nc2ccccc2)c1	i
COc1ccc(Cl)cc1NC(=O)CSc1nc2ncccc2c(=O)n1CC1CCCO1 (centres undefined)	i
Cc1ccc(N2CCn3c2nc2c3c(=O)n(CC(=O)C(C)(C)C)c(=O)n2C)c(C)c1	i
COc1ncccc1C(=O)N1CC(c2nc(-c3ccccn3)no2)C1	i
O=C(CCS(=O)(=O)c1ccccc1)Nc1cccc(N2CCCC2=O)c1	i
COc1ccc2c(c1)c(CC(=O)NCCOC(=O)\C=C(C)/C=C/C=C(C)/C=C/C1=C(C)CCCC1(C)C)c(C)n2C(=O)c1ccc(Cl)cc1	i
O=C(NC1CCN(Cc2ccccc2)CC1)c1c(O)c2sccc2[nH]c1=O	i
Cn1nc(CNC(=O)c2ccccc2C(F)(F)F)cc1-c1ccco1	i
C=CCOC(=O)C1=C(C)NC(=O)NC1c1cc(OC)c(OC)c(OC)c1 (centres undefined)	i
O=C(CCCc1ccccc1)Nc1ccc(SCC(=O)N2CCCC2)nn1	i
CC(C)=CCCC(C)(O)CCCC(C)(O)CCCC(C)(O)CCCC(C)(O)CCCC(C)(O)CCCC(C)(O)C(O)CC/C(C)=C/CC/C(C)=C/CO (centres undefined)	i
C=C(C)C1CCC(C)=C[C@H]1c1c(O)cc(C)cc1O (some centres undefined)	i
NC(=O)c1ccsc1NC(=O)CCCSc1ccccc1	i
COc1ccccc1C(=O)Oc1c(S(=O)(=O)c2ccc(C)cc2)c(C)nn1C(C)(C)C	i
COCCNC(=O)C(=O)NCc1cc(C)oc1C	i
COc1ccc(N2CC(c3nc(-c4ccc(Cl)cc4)no3)CC2=O)c(OC)c1 (centres undefined)	i
N#Cc1nc(-c2ccc(Cl)cc2)oc1N1CCN(C(=O)c2ccc(Cl)cc2)CC1	i
COc1ccc(C(=O)NCC2(c3ccccc3)CCOCC2)c(OC)c1OC	i
COC(=O)c1sccc1S(=O)(=O)N1CCc2nc(NC(=O)c3ccoc3)sc2C1	i
CCCNC(=O)CCCCn1c(=O)c2ccccc2n(CC(=O)NCc2ccc(OC)cc2)c1=O	i
COc1ccc(OCC(O)Cn2c(NCCCOC(C)C)nc3c2c(=O)[nH]c(=O)n3C)cc1 (centres undefined)	i
COCCN(Cc1ccoc1)C(=O)CCc1ccc(OC)cc1	i
CN(C)C(CNS(=O)(=O)c1ccccc1Cl)c1cn(C)c2ccccc12 (centres undefined)	i
COc1ccc(-n2cc(-c3nc(-c4ccc5c(c4)OCO5)no3)c3ccccc3c2=O)cc1OC	i
O=c1c2cc3c(cc2nc(SCc2nc(-c4cccs4)no2)n1Cc1ccccc1)OCO3	i
C=C1C(=O)O[C@H](CCCCCCCC)C1C(=O)O (some centres undefined)	i
Cc1noc(C)c1CCC(=O)N1CCN(c2ccccc2F)CC1	i
Next section
SMILES	GIRK2 activ
O=C(O)CSc1nccc2c(OCc3ccc(F)cc3)cccc12	i
CC(=O)Nc1ccc(C(=O)N2CCC(Oc3ccccn3)CC2)cc1	i
O=C(CCc1nc2sc3c(c2c(=O)[nH]1)CCCCC3)N1CCN(c2ccccn2)CC1	i
O=C(NCc1ccc(F)cc1)C1(c2cccs2)CCCC1	i
O=C(CSc1n[nH]c(=O)c2cc(-c3ccco3)nn12)N1CCCCC1	i
O=C(Cc1ccc(NC(=O)c2cc(-c3ccco3)on2)cc1)NCc1cccs1	i
Cc1nn(-c2cc(SCc3cc(=O)n4cc(Cl)ccc4n3)ncn2)c2c1CCCC2	i
Cc1ccc(S(=O)(=O)N(Cc2ccc(Cl)cc2)C(=O)N2CCN(C)CC2)cc1	i
COc1cc(OC)cc(C(=O)Oc2ccc(/C=C/c3ccncc3)cc2OC)c1	i
CCC(CC)NC(=O)N1CCN(Cc2nnnn2-c2ccc(F)c(F)c2)CC1	i
O=C(NC1(c2nc(-c3ccccc3)no2)CCCCC1)c1ccccc1F	i
COc1cccc2cc(C(=O)C3=C(O)C(=O)N(CCCN(C)C)C3c3ccco3)oc12 (centres undefined)	i
Cc1cc(C)n(-c2ncc(NC(=O)c3cccc(C(F)(F)F)c3)cn2)n1	i
Cc1cc(N2CCCC2)nc(N2CCN(C(=O)c3ccccc3)CC2)n1	i
